T cell HTS: T cell immune modulators affecting CD8 T cell-vesicle binding; 2C CD8+ T cell-vesicle binding, flow cytometry; active compounds read low; calls only at 7 µM; 0.068% of 330,000 active;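 active = response, share of CD8 T cells binding vesicles, and their 90th percentile fluorescence all below set limits, cut at about 80% in these data, passing the limit was not always enough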
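Test system: purified 2C TCR transgenic mouse naive CD8+ T cells. Probe or stimulus: QL9-peptide-loaded Drosophila micro-vesicles bearing Ld, ICAM-1 and B7-1. Incubation: binding step 1.5 h, 37 °C, antibody labelling 20 min, ice. Measured by: flow cytometry of vesicle-bound cells.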
KOR beta-arrestin-1: KOR agonists, beta-arrestin recruitment, primary screen, cell-based, luminescence, uHTS (AID 1777); KOR beta-arrestin recruitment, luminescence; higher % means a stronger effect; 0.02% of 280,000 active; one-dose activation, % at 10 µM; EC50 in µM for titrated hits; in the data active = activation above about 50%, passing the limit was not always enough; also: a part of the inactive calls stands beside numbers as strong as those of hits
NTR1 ag: agonists of NTR1, primary screen, imaging, U2OS cells, beta-arrestin-GFP, high content (AID 493036). P30989. NTR1-U2OS beta-arrestin-GFP spot imaging, agonist mode. activation, % at 20 µM. 0.17% of 330,000 active;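 active = activation at or above 40% of the spot to cytoplasm intensity ratio, with at least 20 cells analyzed; inconclusive = wells under 20 cells, flagged as cytotoxic or low count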;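 also: 0% = DMSO without peptide and 100% = 100 nM NTR1 peptide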
Target sequence (P30989 whole entry, looked up): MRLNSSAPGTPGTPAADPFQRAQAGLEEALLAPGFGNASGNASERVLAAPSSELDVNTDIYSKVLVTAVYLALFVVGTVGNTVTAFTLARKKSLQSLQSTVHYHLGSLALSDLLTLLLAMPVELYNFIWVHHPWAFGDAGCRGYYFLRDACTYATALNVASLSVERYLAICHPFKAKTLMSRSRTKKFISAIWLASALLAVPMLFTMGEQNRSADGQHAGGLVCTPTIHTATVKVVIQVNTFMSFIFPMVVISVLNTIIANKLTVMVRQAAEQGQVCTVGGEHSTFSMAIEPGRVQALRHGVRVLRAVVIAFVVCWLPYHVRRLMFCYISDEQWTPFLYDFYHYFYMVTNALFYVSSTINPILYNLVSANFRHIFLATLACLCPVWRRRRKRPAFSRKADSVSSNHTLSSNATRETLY
GPR55 antagonists: GPR55 antagonists blocking LPI-driven arrestin recruitment, primary screen, imaging, U2OS, beta-arrestin-GFP, LPI agonist (AID 2013); U2OS GPR55 beta-arrestin-GFP translocation imaging, LPI antagonism; higher % means a stronger effect; inhibition, % at 10 µM; hits with a dose series show IC50 in µM; 0.13% of 290,000 active;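 active = spots per cell inhibited over 60%, with over 100 cells counted and total cytoplasm intensity under 500,000; inconclusive = wells with under 100 cells, flagged as likely toxic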;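 also: U2OS cells stably carrying GPR55 and arrestin-GFP stimulated by 5 µM LPI near EC80; imaged beta-arrestin-GFP aggregate spots per cell after agonist stimulation; plate controls were LPI-stimulated DMSO wells for no effect and DMSO wells without LPI for full effect; some results filed as inactive read as strong as hits; confirmed hits need IC50 under 10 µM and bright autofluorescent wells are also inconclusive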
GPR55 beta-arrestin: GPR55 agonists via beta-arrestin recruitment, primary screen, imaging, U2OS cells, beta-arrestin-GFP redistribution (AID 1961); one-dose activation, % at 10 µM; EC50 in µM for titrated hits; 0.048% of 290,000 active; U2OS GPR55 beta-arrestin-GFP redistribution imaging; higher % means a stronger effect;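 active = activation above 40% with more than 50 cells counted in the well; inconclusive = wells holding fewer than 50 cells, flagged as toxic or sparse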;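 also: U2OS osteosarcoma cells stably expressing GPR55 and beta-arrestin-GFP; plate controls were DMSO negative control for no effect and LPI positive control for full effect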
KOR beta-arrestin-2: KOR antagonists, beta-arrestin recruitment, cell-based, luminescence, uHTS (AID 1778) | KOR beta-arrestin recruitment, luminescence, antagonist mode; higher % means a stronger effect | one-dose inhibition, % at 10 µM; IC50 in µM for titrated hits | 0.091% of 290,000 active; in the data active = inhibition above about 50%; also: strong numbers were not always called active
Myeloid diff MLP: compounds promoting myeloid differentiation; ER-HoxA9 myeloid progenitors, lysozyme-GFP differentiation, flow cytometry; 1% of 360,000 active; AID 624256; calls only at 10 µM;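 active = normalized GFP-positive differentiation at or above the plate's own cutoff, the solvent-only control mean plus 3 SD; inconclusive = no clear call, values can overlap the other calls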;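 also: cells exposed to compound for four days before flow analysis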
T cell HTS vesicle-bound %: further read-out of T cell HTS, marked with its call; double positive events, %; measured here: CD8+ vesicle-bound cell fraction;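 binding gate set so that unloaded-vesicle control wells show 10% double positive cells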
NTR1 ag cell count 20 µM: also measured in NTR1 ag; calls as there; cell count; measured here: cell count, cytotoxicity flag
Myeloid diff MLP GFP+ MAC1+ %: second read-out of Myeloid diff MLP, no call of its own (marks repeat the call); GFP+ MAC1+ double positive, %; measured here: differentiation confirmed by MAC1 staining
* marks the source's active call; other numbers are inactive results; i = inactive; ? = inconclusive; . = no result given; + = active, no number; [ ] = dose if it differs, or a comment. An excerpt; rates above refer to the full screens.

SMILES	T cell HTS	T cell HTS vesicle-bound %	KOR beta-arrestin-1	NTR1 ag	NTR1 ag cell count 20 µM	GPR55 antagonists	GPR55 beta-arrestin	KOR beta-arrestin-2	Myeloid diff MLP	Myeloid diff MLP GFP+ MAC1+ %
Cn1c(-c2ccccc2)c(C(=O)CCl)c2ccccc21	.	.	4.2%	.	.	-15.3%	-0.2%	-42.2%	?	.
Cc1ccc(S(=O)(=O)N2C(=O)/C(=C3\SC(=S)NC3=O)c3ccccc32)cc1	i	29.7	6.6%	7.3	54	4.4%	0.3%	-28.7%	.	.
Brc1ccc(-c2cn3ccccc3n2)s1	i	45.3	-3.0%	1.5	47	-10.6%	-0.1%	32.8%	i	0.7
O=C(NNC(=O)c1ccccc1OCc1ccc(F)cc1)c1ccccc1O	i	15.5	9.1%	2.7	57	-1.1%	-0.2%	-28.5%	?	.
COc1cccc(Cn2c(NCc3cccnc3)nc3c2c(=O)n(C)c(=O)n3C)c1	i	56.3	2.8%	-0.3	51	3.2%	-0.1%	-19.1%	+	0.9*
COc1ccc(-c2cc(C)no2)cc1S(=O)(=O)N1CCN(c2ccc([N+](=O)[O-])cc2)CC1	i	5.4	14.8%	0.8	43	-4.5%	0.7%	7.9%	?	.
Cc1cc2cc(C)c3nnc(SCC(=O)NCc4ccc5c(c4)OCO5)n3c2cc1C	i	26.0	-2.1%	3.2	80	6.7%	-0.1%	-11.5%	i	0.7
CC(=O)Oc1c(C)cc(Cl)cc1C(=O)Nc1ccc([N+](=O)[O-])cc1Cl	i	53.5	3.0%	2.2	71	43.7%	-0.1%	-24.0%	?	.
CCOc1cc2[nH]c(=S)n(CCC(=O)N3CCc4ccccc4C3)c(=O)c2cc1OCC	i	16.8	4.4%	-0.2	88	9.6%	-2.3%	-24.1%	i	1.3
CC(C)(C)c1ccc(C(=O)N2CCCCCC2=O)cc1	i	40.3	1.3%	2.0	68	-2.7%	1.1%	25.3%	i	0.8
O=C(c1nnsc1S(=O)(=O)c1ccc(Cl)cc1)N1CCOCC1	.	.	-3.6%	1.1	98	12.7%	0.2%	33.4%	i	0.3
C/C(=N\NC(=O)C1COc2ccccc2O1)c1ccccn1 (stereo not given)	i	26.5	-4.2%	3.2	67	17.0%	1.0%	6.93µM*	i	3.9
Oc1c(CN2CCN(c3ccc(F)cc3)CC2)cc(Cl)c2cccnc12	i	7.2	-4.3%	1.8	79	16.1%	-0.1%	-16.2%	?	.
C[C@@H]1C[C@@H]2O[C@H]2/C=C\C=C\C(=O)Cc2c(Cl)c(O)cc(O)c2C(=O)O1	i	50.7	0.0%	-2.3	73	36.8%	-0.2%	21.6%	?	.
CCN1/C(=C/C=C/C=C/C=C/c2sc3ccccc3[n+]2CC)Sc2ccccc21	i	31.7	-0.1%	2.2	79	-4.8%	0.0%	17.7%	i	7.4
Cc1sc2nc(CSc3ccccc3)nc(N3CCC(C(N)=O)CC3)c2c1C	i	44.3	7.3%	13.1	62	4.8%	0.6%	-8.0%	i	0.4
CCn1c(C)nc2cc(S(=O)(=O)C(F)F)ccc21	i	37.6	-2.4%	0.7	67	17.6%	-0.1%	34.3%	i	4.9
Cc1cccc(-n2c(SCC(=O)N3CCC(C(=O)O)CC3)nc3ccccc3c2=O)c1C	i	24.4	12.6%	0.0	44	-2.3%	0.8%	47.3%	i	0.8
CC(=O)NC(c1cccs1)c1cc([N+](=O)[O-])c2cccnc2c1O (stereo not given)	i	42.2	-1.7%	.	.	4.7%	-0.3%	25.5%	i	0.4
O=c1cc(C(F)(F)F)[nH]c2ccc(OC(F)(F)F)cc12	i	19.8	16.5%	1.5	43	4.4%	0.0%	-29.6%	i	0.7
C=C1C(=O)[C@@]23[C@H](O)C[C@@H]4C(C)(C)CC[C@H](O)[C@@]4(C)[C@@H]2CC[C@@H]1[C@H]3O	i	42.5	-0.9%	4.8	49	1.2%	-0.2%	-17.0%	?	.
CCc1ccc(NC(=O)C2CCN(S(=O)(=O)c3ccc4c(c3)CC(C)N4C(C)=O)CC2)cc1 (stereo not given)	i	35.5	-6.0%	0.0	70	14.3%	-0.1%	-27.7%[20 µM]	i	6.4
O=C(/C(=C\c1ccccc1)c1nc2ccccc2[nH]1)c1ccc(Cl)cc1	i	45.1	5.1%	15.8	72	25.5%	-0.1%	1.3%	?	.
CSc1nc2ccc(NS(=O)(=O)c3ccc4c(c3)OCCO4)cc2s1	i	18.3	-0.8%	1.4	53	7.0%	-0.2%	-35.3%	.	.
Cc1cc(Nc2cccc([N+](=O)[O-])c2)n2c(nc3ccccc32)c1C#N	i	20.3	3.3%	5.4	26	-1.2%	0.6%	-5.6%	i	0.7
COc1ccc(-c2csc(NC(=O)c3ccccc3NS(=O)(=O)c3ccc(F)c(F)c3)n2)cc1	i	19.2	9.1%	15.0	51	21.3%	-0.1%	-298.4%[20 µM]	i	0.2
CCN1/C(=C/c2ccc3cc(C)cc(C)c3[n+]2CC)Sc2cc(C)ccc21	.	.	11.3%	.	.	?	-0.8%	0.6%	?	.
COc1cc(OC)c(N(C)S(=O)(=O)c2cccc(C(=O)OCC(=O)c3c[nH]c4ccccc34)c2)cc1Cl	i	8.7	7.5%	5.0	70	10.2%	0.6%	8.5%	i	1.4
c1ccc(C2=Nn3c(nnc3-c3ccncc3)SC2)cc1	i	40.9	2.3%	.	.	13.4%	-0.1%	-16.0%	i	1.0
Cc1[nH]nc2ncc(C(=O)c3ccccc3O)cc12	i	17.3	.	-0.8	60	2.7%	-0.2%	-31.9%	i	0.7
CC(C)NC(=O)c1sc(=S)n2c1[nH]c(=O)c1ccc(C(=O)NCCc3ccc(Cl)cc3)cc12	i	12.4	2.7%	9.6	61	7.1%	-0.4%	-21.9%	?	.
Cc1nn(-c2nc3ccccc3[nH]2)c(N)c1-c1ccccc1	i	51.0	7.5%	3.3	50	-5.4%	-0.3%	-6.0%	i	0.3
Cc1ccc(NS(=O)(=O)c2cc([N+](=O)[O-])ccc2NNC(=S)Nc2cc(C)ccc2C)c(C)c1	i	19.1	0.0%	9.0	43	4.5%	-0.2%	.	i	0.4
Clc1cccc(Cl)c1CON/C=N/c1ncnc2sccc12	i	30.3	-2.8%	5.5	44	9.9%	-0.4%	26.1%	i	0.4
COc1ccc(-c2cn[nH]c2-c2ccc(OC)cc2)cc1	i	43.7	-3.1%	2.1	83	6.9%	-0.2%	34.5%	i	0.4
CC(=O)c1cn(CCOc2ccccc2C)c2ccccc12	i	31.8	-3.6%	5.1	57	12.1%	-0.1%	-37.1%[20 µM]	i	2.6
COc1cc(NC(=O)c2ccccc2NS(=O)(=O)c2ccc(Cl)s2)cc(OC)c1	i	8.4	5.7%	11.1	42	10.9%	-0.2%	.	i	0.8
Cc1[nH]n(-c2nc(-c3ccc(Cl)cc3)cs2)c(=O)c1N=Nc1ccc(O)cc1	i	27.7	9.4%	20.6	54	2.0%	-0.2%	-43.5%	.	.
CC(=C/c1ccccc1)/C=N/n1c(-c2ccncc2)n[nH]c1=S	i	45.6	-3.6%	2.7	26	-3.9%	-0.1%	16.1%	i	0.0
Cc1nc2ccc(NS(=O)(=O)c3ccc4c(c3)OCCO4)cc2s1	i	60.1	2.3%	0.0	53	2.6%	-0.1%	25.8%	+	3.4*

Single entries from the results shown.
O=C(c1nnsc1S(=O)(=O)c1ccc(Cl)cc1)N1CCOCC1 in KOR beta-arrestin-2 is entered as 33.4%
C[C@@H]1C[C@@H]2O[C@H]2/C=C\C=C\C(=O)Cc2c(Cl)c(O)cc(O)c2C(=O)O1 in NTR1 ag cell count 20 µM is entered as 73

Remaining list, next part.
SMILES	T cell HTS	T cell HTS vesicle-bound %	KOR beta-arrestin-1	NTR1 ag	NTR1 ag cell count 20 µM	GPR55 antagonists	GPR55 beta-arrestin	KOR beta-arrestin-2	Myeloid diff MLP	Myeloid diff MLP GFP+ MAC1+ %
O=C1/C(=C/c2ccncc2)CCC/C1=C\c1ccncc1	.	.	-5.9%	.	.	26.6%	-0.3%	9.6%	.	.
O=C1/C(=C\c2cc(Cl)c(O)c(Cl)c2)SC(=S)N1Cc1ccccc1	i	36.8	-4.1%	.	.	?	0.0%	-26.9%	+	10.4*
O=C(CN1C(=O)c2ccccc2S1(=O)=O)c1ccc2c(c1)OCCO2	i	21.4	-0.8%	-0.3	55	-0.3%	0.9%	14.3%	i	1.2
COc1cccc(C(=O)/C=C/Nc2ccc(S(=O)(=O)Nc3cccc(C(C)=O)c3)cc2)c1	i	30.1	-6.0%	2.5	68	-1.1%	0.0%	20.3%	i	0.7
O=[N+]([O-])c1cc([N+](=O)[O-])c2oc(-c3ccccc3)c(Br)c2c1O	.	.	0.8%	.	.	8.9%	0.5%	-6.1%	i	0.1
Cc1ccc(N=c2oc3cc(O)ccc3cc2C(N)=O)cc1	i	22.5	-3.8%	-0.5	90	3.1%	-0.1%	-11.1%	i	0.5
CC(C)c1ccc(NC(=O)c2ccc(Br)o2)cc1	i	67.2	-0.3%	0.6	58	5.4%	-0.4%	6.7%	i	1.1
O=C(N/N=C(\c1ccccc1)c1cccnc1)c1cccc(F)c1	i	9.0	-1.9%	5.0	65	23.5%	0.2%	13.1µM*	.	.
Cc1c(C(=O)Nc2nonc2-c2ccc(F)cc2)oc2ccc(F)cc12	i	8.9	2.4%	3.2	66	4.9%	-0.1%	-44.4%	i	0.0
COc1ccc(-c2nsc3c(N4CCCCC4)ncnc23)cc1	i	18.2	5.6%	1.3	86	4.6%	0.2%	-15.4%	i	0.2
CCOC(=O)c1oc2ccc(S(=O)(=O)n3nc(-c4ccc(OC)cc4)cc3N)cc2c1C	i	28.7	1.1%	2.4	91	-13.2%	0.3%	-53.1%	?	.
COc1ccc(-c2csc3ncnc(NCCCO)c23)cc1	i	61.7	-1.0%	2.0	55	-8.9%	0.5%	-23.5%[20 µM]	i	0.6

A different layout for some results above.
Fields: T cell HTS	T cell HTS vesicle-bound %	KOR beta-arrestin-1	NTR1 ag	NTR1 ag cell count 20 µM	GPR55 antagonists	GPR55 beta-arrestin	KOR beta-arrestin-2	Myeloid diff MLP	Myeloid diff MLP GFP+ MAC1+ %
CC(C)c1ccc(NC(=O)c2ccc(Br)o2)cc1
  i	67.2	-0.3%	0.6	58	5.4%	-0.4%	6.7%	i	1.1
O=C1/C(=C\c2cc(Cl)c(O)c(Cl)c2)SC(=S)N1Cc1ccccc1
  i	36.8	-4.1%	.	.	?	0.0%	-26.9%	+	10.4*
O=[N+]([O-])c1cc([N+](=O)[O-])c2oc(-c3ccccc3)c(Br)c2c1O
  .	.	0.8%	.	.	8.9%	0.5%	-6.1%	i	0.1
COc1ccc(-c2nsc3c(N4CCCCC4)ncnc23)cc1
  i	18.2	5.6%	1.3	86	4.6%	0.2%	-15.4%	i	0.2

Screening results deposited in PubChem BioAssay by several laboratories.
